# Compound activity from PubChem.
# YopH inh: YopH tyrosine phosphatase inhibitors, primary screen, biochemical, fluorescence Ex485/Em525. YopH tyrosine phosphatase [Yersinia enterocolitica]. inhibition, %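 (about 10 µM by stock and volumes)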. 140,000 tested, 0.16% active. AID 898, 2007;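 active = inhibition of 50% or more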;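 also: controls were vehicle for no effect and minimum signal wells for full effect; inactives centre near -20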
# Arbovirus inh: antivirals against arbovirus infection, primary screen, cell-based, full library, 10K replicate subset; arbovirus infection cell-based antiviral screen; inhibition, % at 10 µM; 200,000 tested, 0.37% active; AID 1251, 2008;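 active = inhibition from about 30%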;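 also: bluetongue infection of BSR cells; cell survival read as ATP light after 72 h; 0% = infected wells without compound and 100% = uninfected wells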
# RecA splice inh: Mtb RecA intein splicing inhibitors, primary screen, biochemical, fluorescence, HTS; inhibition, %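 (about 9 µM by stock and volumes)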; cell-free RecA intein splicing; 290,000 tested, 0.75% active; AID 2221, 2009; in the data active = inhibition above about 30%; inconclusive = no clear call, values can overlap the other calls;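 also: 0% = vehicle wells and 100% = reference inhibitor control wells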
# Target sequence (P9WHJ3 whole entry, looked up, canonical isoform): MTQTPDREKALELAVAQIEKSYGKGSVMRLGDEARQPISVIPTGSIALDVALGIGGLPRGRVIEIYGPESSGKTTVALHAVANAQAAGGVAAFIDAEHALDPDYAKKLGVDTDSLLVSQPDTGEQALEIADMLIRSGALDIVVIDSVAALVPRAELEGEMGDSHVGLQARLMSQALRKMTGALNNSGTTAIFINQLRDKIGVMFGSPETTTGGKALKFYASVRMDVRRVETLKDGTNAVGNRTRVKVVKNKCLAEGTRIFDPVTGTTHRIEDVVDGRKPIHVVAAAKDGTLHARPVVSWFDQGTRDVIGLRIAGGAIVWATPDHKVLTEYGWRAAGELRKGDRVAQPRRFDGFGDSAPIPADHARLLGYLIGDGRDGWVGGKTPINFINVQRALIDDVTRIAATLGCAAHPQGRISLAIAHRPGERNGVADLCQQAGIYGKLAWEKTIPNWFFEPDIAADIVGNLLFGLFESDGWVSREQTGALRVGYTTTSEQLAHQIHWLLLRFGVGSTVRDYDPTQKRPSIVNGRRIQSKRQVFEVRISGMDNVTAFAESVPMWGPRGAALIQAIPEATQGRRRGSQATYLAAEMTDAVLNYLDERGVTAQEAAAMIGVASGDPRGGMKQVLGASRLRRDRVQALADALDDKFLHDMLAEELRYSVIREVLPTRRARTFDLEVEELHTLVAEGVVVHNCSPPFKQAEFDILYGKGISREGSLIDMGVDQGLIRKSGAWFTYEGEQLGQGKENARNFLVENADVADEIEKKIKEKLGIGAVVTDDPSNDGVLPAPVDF
# Mtb betalactam: beta-lactam sensitization of Mtb H37Rv, H37Rv; M. tuberculosis H37Rv growth with meropenem, percent inhibition; hits of this screen are not shown here; inhibition, % at 25 µM; 330,000 tested, 0.27% active; AID 434955, 2010;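 active = about 74% or more and at least 40 points above the plate without the antibiotic, then above 30% in a dose series; inconclusive = first-round hits that could not be retested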;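 also: growth measured after seven days incubation then overnight dye step; 0% = bacteria only wells and 100% = bacteria with antibiotic; twin plates without the antibiotic show which effects depend on it; some results filed as inactive read as strong as hits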
# Mtb H37Rv: M. tuberculosis H37Rv growth inhibitors, H37Rv strain (AID 1626). M. tuberculosis H37Rv growth inhibition; higher % means a stronger effect. 220,000 tested, 0.95% active. inhibition, % at 10 µM, or IC50 in µM where a hit was titrated;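 active = confirmed in a dose series; inconclusive = inhibition above 80% but not taken into the dose series; inactive = below 80% or under 30% at every dose of the series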;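 also: bacteria incubated seven days before Alamar blue readout; 0% = bacteria only wells and 100% = bacteria with antibiotic wells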
# Arbovirus inh repeat: further read-out of Arbovirus inh, marked with its call; inhibition, %; measured here: 10K subset replicate screen; many hits read low in the repeat;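 first of two repeat runs on a subset; 0% = infected and 100% = uninfected wells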
# * = called active by the depositor; ? = inconclusive; . = no result given. These rows are one share of the data; rates above refer to the full screens.
SMILES,YopH inh,Arbovirus inh,RecA splice inh,Mtb betalactam,Mtb H37Rv,others
O=C(/C=C/c1ccc(Cl)c([N+](=O)[O-])c1)Nc1cccc(NC(=O)c2ccco2)c1,-18,-34,1.7,77,68%,
Cc1cc(C)n(-c2nc(NCCN(C)C)c3c4c(sc3n2)CCCC4)n1,.,.,1.2,98,?,
CCc1ccc(S(=O)(=O)NCc2csc(-c3cccnc3)n2)s1,-11,-1,0.0,-2,12%,Arbovirus inh repeat=2
CCOc1ccc(-n2c(=O)c3c4c(sc3n(CC(=O)NCc3ccco3)c2=O)CCC4)cc1,-7,-12,1.7,11,3%,
Cc1cc2nc(-c3ccc(SCC(=O)N4CCc5ccccc54)nc3)[nH]c2cc1C,-28,-36,-2.5,22,-2%,
O=C(Cc1cccc2ccccc12)OCn1nnc2ccccc2c1=O,-28,18,15,98,35%,
COC(=O)c1c(NC(=O)CCN2CCOCC2)sc2c1CCCC2,.,-6,0.5,-1,.,
O=C(c1sccc1Cl)N1CCN(Cc2ccc3c(c2)OCO3)CC1,.,.,1.1,3,-5%,
CCCn1nc(NC(=O)c2cccs2)c2cc3cccc(C)c3nc21,.,.,.,18,24%,
COc1ccc(-c2cc(=O)c3cc(OC)ccc3[nH]2)cc1,-37,-7,-0.7,-10,-1%,
CCCc1nn2c(=O)cc(COc3cccc(NC(=O)c4ccco4)c3)nc2s1,.,.,1.6,?,.,
Cc1c(NC2=C(Cl)C(=O)N(c3ccccc3)C2=O)c(=O)n(-c2ccccc2)n1C,-29,5,2.1,-2,-11%,Arbovirus inh repeat=2
O=C(CN(C1CCCCC1)S(=O)(=O)c1ccc(Cl)cc1)NCCCO,-10,5,1.6,-1,-6%,
COc1ccc(NC(=O)CN2C(=O)NC3(CCCC3)C2=O)cc1,.,.,1.9,1,.,
Cc1cc(NS(=O)(=O)c2ccc(NC(=O)COc3ccc(Cl)cc3)cc2)no1,-81,6,2.3,48,.,
O=C(NC(=S)NCc1ccccc1)c1ccc2c(c1)OCO2,-16,3,4.5,5,.,
Cc1cc(N/N=C/c2ccc(F)cc2)nc(-n2nc(C)cc2C)n1,.,.,.,92,?,
O=C(NC(Cc1ccccc1)C(=O)N1CCCCCC1)c1ccccc1 (configuration not stated),.,.,1.0,2,.,
CCn1cc(S(=O)(=O)CC(=O)Nc2ccc3c(c2)OCCO3)c2ccccc21,-45,0,.,-5,-4%,Arbovirus inh repeat=-1
CC(=O)OCC1(C)CN(c2ccccc2)NC1=O (configuration not stated),.,-28,-3.4,37,0%,
COc1ccccc1CNC(=O)CSc1nc2ccccc2c(=O)n1CCCN1CCOCC1,.,1,1.1,-6,9%,
COc1ccc(-c2cc(=O)oc3cc(O)ccc23)cc1,.,.,-49,-3,.,
COc1cccc(C2CC(c3cccs3)=NN2C(=O)CSc2nc3ccccc3s2)c1OC (configuration not stated),-10,0,16,-2,1%,
CCCCNC(=S)N/N=C/c1ccccc1F,-29,1,0.4,53,?,
Cc1ccc(CN2C(=O)c3ccccc3C2C(=O)NCC2CCCO2)cc1 (configuration not stated),-34,10,-8.3,-4,-3%,
SMILES,YopH inh,Arbovirus inh,RecA splice inh,Mtb betalactam,Mtb H37Rv,others
COC(C)(C)[C@]12CC(O)(C(C)C)ON1[C@H]1CCCCC1N2O (some centres not stated),-32,3,-3.3,-5,-2%,
CC1CCN(C(=O)Cn2ncc3c([nH]c4ccccc43)c2=O)CC1,.,.,-0.4,0,.,
O=C1CC(c2ccccc2)n2ncnc2N1 (configuration not stated),-32,0,-0.7,-20,-2%,
O=C(NCc1cccnc1)C1CC(c2cccc(Br)c2)=NO1 (configuration not stated),.,.,-1.2,-1,.,
CCCCC(=O)Oc1cc(C)[nH]c(=O)c1[N+](=O)[O-],.,4,.,6,.,
COc1ccccc1C(=O)CN1C(=O)NC2(CCc3ccccc32)C1=O (configuration not stated),.,.,-0.3,-4,.,
O=C(CSc1nnc(-c2ccc(OC(F)F)cc2)o1)NC(=O)NCc1ccco1,-49,-7,0.5,14,17%,
O=C(Nc1cccc([N+](=O)[O-])c1)Nc1ccc2c(c1)OCCO2,.,7,0.6,-3,4%,
CCOc1ccc(CCNC(=O)c2nnn(CC(=O)Nc3c(C)cc(C)cc3C)c2N)cc1OCC,.,.,-1.2,7,.,
CCOc1ccccc1CNC(=O)CCNC(=O)Cn1ccc2ccccc2c1=O,2,6,-0.1,-9,-6%,
Cc1nc(C2COc3ccccc3O2)sc1C(=O)O (configuration not stated),.,.,1.8,-3,-3%,
CC(C)COc1ccc(C(=O)CCN2CCCCC2)cc1,-33,-12,-1.9,51,-12%,
CCCCn1c(NCCC)nc2c1c(=O)[nH]c(=O)n2C,7,0,0.6,.,5%,
Cc1cccc(C(=O)O)c1NC(=O)Cc1cccc2ccccc12,.,.,-0.1,1,.,
COc1ccc(NC(=O)CSc2nnc(COc3ccccc3)n2Cc2ccco2)cc1OC,-49,0,0.7,-7,-7%,
CCCCNC(=O)c1onc(CSc2ccccc2)c1C(=O)NCCCC,.,.,3.5,-4,.,
O=C(NCC1CCCO1)c1ccc(NS(=O)(=O)c2cccs2)cc1 (configuration not stated),.,.,3.2,0,-3%,
CC(C)CNC1CS(=O)(=O)CC1O (configuration not stated),.,.,3.5,-8,-1%,
Cc1ccc(-c2ccc(CCC(=O)O)n2-c2cccc(O)c2)cc1,-42,11,1.4,39,-5%,
COC(=O)C1=C(C)NC(C)=C(C(=O)OCC(C)C)C1c1ccccc1[N+](=O)[O-] (configuration not stated),.,.,19,7,2%,
O=C(Nc1ccc(F)cc1)c1cccc(N2C(=O)C3C4CCC(C4)C3C2=O)c1 (configuration not stated),-25,0,-1.0,-2,7%,
CCCn1nnc(NC(=S)NC(=O)c2ccc(-c3ccc(Br)cc3)o2)n1,.,.,-3.8,97,?,
Cc1ccnc(NC(=S)NC(=O)c2ccco2)c1,-25,-8,-0.5,3,.,
CCc1ccccc1OCCOc1ccc(C)cc1OC,-29,6,6.6,38,4%,
CC(=O)N1c2ccc(S(=O)(=O)NCC3CCC(C(=O)N4CCCC(C)C4)CC3)cc2CC1C (configuration not stated),.,.,-1.8,2,.,
SMILES,YopH inh,Arbovirus inh,RecA splice inh,Mtb betalactam,Mtb H37Rv,others
CCC(C)N1CC23C=CC(O2)C(C(=O)OC)C3C1=O (configuration not stated),-12,4,1.0,-6,-14%,Arbovirus inh repeat=1
COCCNC(=O)C(=O)NCC1OCCN1S(=O)(=O)c1cccs1 (configuration not stated),.,.,-4.1,3,-2%,
CSc1ccccc1NC(=O)Cc1ccc(Br)cc1,-22,-1,1.2,4,3%,
CCCCc1ccc(S(=O)(=O)NCCCN2CCCC2=O)cc1,.,.,0.7,-19,.,
O=C(NCc1nnc(SCC(=O)N2CCOCC2)o1)c1ccccc1F,.,15,0.2,6,1%,
Cc1ccc(Cl)cc1N1CCN(C(=O)CCS(=O)(=O)c2cccc3nonc23)CC1,4,6,8.4,86,79%,Arbovirus inh repeat=11
O=C(NCCN1CCOCC1)c1cc2ccccc2[nH]1,-21,-5,-2.7,-14,-6%,
CCOC(=O)c1sc(NC(=O)CSC(=S)N2CCN(C)CC2)nc1C,.,.,-0.4,-2,10%,
CCCS(=O)(=O)N1CCCC(C(=O)N2CCC3(CC2)OCCO3)C1 (configuration not stated),-26,4,-3.6,-11,-8%,
COc1ccc(NC(=O)Cn2c(-c3ccccc3)cc(C(C)=O)c2C)c(OC)c1,.,-9,.,1,-4%,
COc1ccc(NC(=O)CSC2=C(C#N)C(c3ccco3)C(C(=O)Nc3nc4ccccc4s3)=C(C)N2)cc1 (configuration not stated),-36,.,-5.1,99,14µM*,
Cc1ccc(/C=C/c2ccc(=O)n(Cc3ccc(F)cc3)n2)cc1,.,-5,.,-3,8%,
NC(=O)CS(=O)C(c1ccccc1)c1ccccc1 (configuration not stated),.,22,.,.,-10%,
COc1cc2nc(CSc3ncn[nH]3)[nH]c(=O)c2cc1OC,.,0,-1.9,-4,0%,
CCOc1ccc(S(=O)(=O)NCc2ccccn2)c(C)c1C,.,.,-0.3,-11,.,
O=C(N/N=C/c1cn(CCOc2ccccc2)c2ccccc12)c1ccncc1,-18,3,3.6,98,?,
NNc1nc2sc3c(c2c(=O)n1Cc1ccccc1)CCC3,.,.,1.8,3,.,
Cc1cc(C)cc(N(C(=O)c2cc3ccccc3oc2=O)C2C=CS(=O)(=O)C2)c1 (configuration not stated),-6,5,0.2,-5,-1%,
COc1cc2nc(NC(=O)c3ccc(Cl)cc3)[nH]c(=O)c2cc1OC,-29,-8,-1.2,-4,3%,
CCOc1ccc(Br)cc1CSC(=N)N,-12,-5,2.9,-5,8%,
CCCCC(OC(=O)c1cc2occc2n1C)C(=O)NCC1CCCO1 (configuration not stated),-55,-3,-0.6,0,0%,
O=C(Nc1ccc(Cl)c(Cl)c1)N1CCC(N2CCCCC2)CC1,-37,-35,-4.5,-13,-3%,
CCOC(=O)c1cnc(SCC(=O)NCc2ccco2)nc1N,-50,1,-0.2,-4,-1%,
CC(C)NC(=O)CC1Nc2c3ccccc3nc(=S)n2C1=O (configuration not stated),-1,0,-3.3,2,-2%,
Cc1cc(C)cc(N2CCCn3c2nc2c3c(=O)n(CCN3CCOCC3)c(=O)n2C)c1,-15,4,.,62,6%,
SMILES,YopH inh,Arbovirus inh,RecA splice inh,Mtb betalactam,Mtb H37Rv,others
CCCCn1c(=O)[nH]c(=O)c2c1nc(-c1cc(Cl)c(OC)c(OC)c1)n2C,.,.,-0.6,-7,.,
O=C(CN1CCOCC1)Nc1ccccc1Sc1ccc(Cl)cc1,-15,-19,.,9,4%,
Cc1nc2ccccc2c(=O)n1NC(=O)c1ccc([N+](=O)[O-])cc1Cl,.,18,0.5,0,-3%,
COC(=O)c1c(NC(=O)C2C3C=CC(CC3)C2C(=O)O)sc(C)c1C (configuration not stated),-33,3,-5.4,14,-4%,
O=C(CSc1nc(C2CCCCC2)n(-c2ccccc2)n1)NCC(F)(F)F,9,-7,3.2,12,19%,
CC(NS(=O)(=O)c1ccccc1)c1n[nH]c(=S)n1-c1ccccc1 (configuration not stated),.,.,-0.2,3,2%,
O=C(Nc1ccc(Oc2cccnc2)cc1)C1CCCCN1Cc1ccc(CO)o1 (configuration not stated),.,.,-2.0,-5,.,
CCOC(=O)C1CCN(CC(=O)Nc2cc(C)nn2-c2nc3ccccc3s2)CC1,-1,8,0.0,.,.,
Cc1ccc(S(=O)(=O)NCCC(=O)NCCSc2ccc(Br)cc2)cc1,.,.,3.3,-10,.,
COc1ccc(/C=C/C(=O)c2ccncc2)c2ccccc12,-16,-28,57*,82,76%,
CN(C)c1ccc(/C=C2\N=C(C(C)(C)C)OC2=O)cc1,.,.,-4.6,99,.,
CCN1C(=O)CSC1=Nc1ccc(Cl)c(Cl)c1,.,.,8.7,-3,.,
Cc1c(CCO)c(=O)n(-c2ccccc2)n1S(=O)(=O)c1ccc(F)cc1,-6,3,-4.2,-2,5%,
C[N+](C)=C1SCC(C)(/C=N/O)S1 (configuration not stated),.,.,1.0,-19,-4%,
O=C(NCCNC1CCC(c2ccccc2)CC1)c1cccs1 (configuration not stated),.,-31,-1.9,-7,5%,
CC1CN(C(=O)CCC(=O)N2CCCCC2)c2ccccc2O1 (configuration not stated),.,.,3.3,4,.,
CSc1ccc(CN2CCN(C(=O)Cc3ccccc3)CC2)cc1,.,.,0.4,-5,.,
CN(CC1CCOCC1)C(=O)CC1C(=O)NCCN1CC1CCCCC1 (configuration not stated),.,-2,-2.2,-4,-1%,
COc1cc(C(=O)NCCC(=O)N2CCN(C)CC2)cc(OC)c1OC,.,5,-0.4,-4,0%,
Cn1cc[n+](C)c1P(=S)(c1ccccc1)c1ccccc1,.,7,-1.7,-8,0%,
COCCNC(=O)CN(C(=O)CCC(=O)Nc1cc(C)on1)c1cccc(C)c1C,-20,10,1.4,-1,-8%,
Cc1[nH]n(-c2ccccc2)c(=O)c1N=Nc1ccc(Cl)cc1,.,.,2.3,67,.,

# Sorted by molecular weight (low to high): 6 of the compounds above
SMILES,YopH inh,Arbovirus inh,RecA splice inh,Mtb betalactam,Mtb H37Rv,others
CCCCC(=O)Oc1cc(C)[nH]c(=O)c1[N+](=O)[O-],.,4,.,6,.,
CCCCn1c(NCCC)nc2c1c(=O)[nH]c(=O)n2C,7,0,0.6,.,5%,
CSc1ccccc1NC(=O)Cc1ccc(Br)cc1,-22,-1,1.2,4,3%,
CCCn1nc(NC(=O)c2cccs2)c2cc3cccc(C)c3nc21,.,.,.,18,24%,
O=C(Nc1ccc(Oc2cccnc2)cc1)C1CCCCN1Cc1ccc(CO)o1 (configuration not stated),.,.,-2.0,-5,.,
Cc1cc(NS(=O)(=O)c2ccc(NC(=O)COc3ccc(Cl)cc3)cc2)no1,-81,6,2.3,48,.,
